PINK1 modulator = PINK1 expression modulation; PINK1 immunofluorescence, high-content cytometry, 24 h; Potency, µM (highest dose often 76.6 µM), without a hit: top-dose activation (PINK1 increase), usual class: activators; 410,000 tested, 0.2% active; active = well fitted activation curve with a large enough effect; inconclusive = small, poorly fitted or top-dose-only effect; inactive = flat fitted curve, though single readings scatter; cell line not stated here;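 note: potency is the fitted concentration of half-maximal effect; % of control where 0% means no effect; nearly all actives have a fitted effect of over 65% in size; a mitochondrial uncoupler was the plate control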
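Fluorescence from anti-PINK1 antibody, together with nuclear and cell stains, was scanned on a laser-scanning cytometer. Before staining, stable-line cells were incubated 24 hours with compounds at 5 concentrations; primary antibody 12 h at 10 degrees C.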
D2 PAM = positive allosteric modulators of human D2 dopamine receptor | 360,000 tested, 0.23% active | P14416 | DiscoveRx D2 beta-arrestin cells, luminescence, 90 min; 100% = 57 uM dopamine signal | potentiation, % (concentration not given with the values); active = potentiation of 50% or more; inconclusive = 30% to 50%; inactive = 30% or less;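 note: compound concentration not given in the record; tested on top of an EC20 dose of dopamine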
Target sequence (P14416 whole entry, looked up): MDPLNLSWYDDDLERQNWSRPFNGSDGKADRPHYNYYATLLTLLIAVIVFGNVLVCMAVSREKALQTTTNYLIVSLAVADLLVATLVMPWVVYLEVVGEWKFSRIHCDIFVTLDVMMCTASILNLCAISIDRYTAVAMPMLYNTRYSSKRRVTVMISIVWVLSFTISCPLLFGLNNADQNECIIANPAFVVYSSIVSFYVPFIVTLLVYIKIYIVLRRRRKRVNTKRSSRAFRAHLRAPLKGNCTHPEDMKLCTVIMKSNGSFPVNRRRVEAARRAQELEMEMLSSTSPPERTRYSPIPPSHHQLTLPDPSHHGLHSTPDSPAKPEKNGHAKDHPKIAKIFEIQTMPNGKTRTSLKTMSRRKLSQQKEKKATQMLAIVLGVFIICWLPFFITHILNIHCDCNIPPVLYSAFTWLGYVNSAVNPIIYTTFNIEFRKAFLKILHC
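PathHunter beta-arrestin assay in DiscoveRx D2 cells. Compounds were added with an EC20 of dopamine (50 nM final) for 90 min at 37 deg C. Luminescence was read 1 h after detection reagent, with 57 uM dopamine as the EC100 control.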
TRPML1 agonist = activates the human TRPML1 channel. 410,000 tested, 0.12% active. activation, % (no concentration beside the values). AID 624414. TRPML1-expressing cells, Ca2+ dye fluorescence, FDSS; host cell line not named in the record; reference of the full effect not given here. Q9GZU1; in the data active = activation above about 50%; inconclusive = about 30% to 50%; inactive = below about 30%; note: 0% is about no effect; the text of the record puts the active cut at 80%
Target sequence (Q9GZU1 whole entry, looked up): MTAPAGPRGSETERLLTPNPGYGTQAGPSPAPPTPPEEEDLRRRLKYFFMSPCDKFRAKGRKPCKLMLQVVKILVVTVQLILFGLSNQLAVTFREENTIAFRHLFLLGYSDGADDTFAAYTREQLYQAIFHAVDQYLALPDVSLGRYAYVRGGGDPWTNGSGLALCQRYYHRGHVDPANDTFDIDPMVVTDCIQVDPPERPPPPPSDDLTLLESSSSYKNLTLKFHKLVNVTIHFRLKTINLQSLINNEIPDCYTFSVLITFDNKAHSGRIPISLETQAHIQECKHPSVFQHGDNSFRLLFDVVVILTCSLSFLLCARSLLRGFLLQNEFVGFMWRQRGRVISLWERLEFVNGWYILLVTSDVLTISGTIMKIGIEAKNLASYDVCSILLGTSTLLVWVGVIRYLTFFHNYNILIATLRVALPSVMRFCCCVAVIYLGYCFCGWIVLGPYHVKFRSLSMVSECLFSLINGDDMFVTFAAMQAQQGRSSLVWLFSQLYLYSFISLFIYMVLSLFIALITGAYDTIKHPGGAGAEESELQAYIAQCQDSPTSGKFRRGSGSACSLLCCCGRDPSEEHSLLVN
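TRPML1-DL cells, Tet-induced overnight (~16 h, 37 degrees C), loaded 45-90 min at room temperature with Ca8 no-wash calcium dye plus quencher. FDSS fluorescence: 10 s baseline, compound pin-transfer, 110 s agonist read, then EC80 54-4 (4uM final) and 110 s antagonist read.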
TRPML1 blocker = human mucolipin-1 channel inhibition | 390,000 tested, 0.02% active | TRPML1-inducible cells, Ca2+ dye fluorescence, FDSS; hits give low values; inhibition of EC80 agonist-evoked calcium signal | AID 624415 | Q9GZU1 | activity change, negative = inhibition, % (concentration not given with the values); in the data active means activity change below about -50%; inconclusive means about -30% to -50%; inactive means above about -30%;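 note: stimulus is agonist 54-4 at its EC80 concentration; % is set by controls: 0 for no effect and ±100 for the full control effect; compound concentration not given in the record; the text of the record puts the active cut at -80%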
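Calcium fluorescence in TRPML1-DL cells induced overnight with Tet: a 110 s read after compound pin addition, then a 110 s antagonist read after challenge with 54-4 at 4 uM final (EC80).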
Six1-Eya2 inh = Six1/Eya2 interaction inhibition. AlphaScreen GST-Six1/His-Eya2 binding, biochemical; hits give low values; control for the full effect not named in the record. activity change, % (concentration not given with the values). 360,000 tested, 0.56% active. AID 651725; in the data active = activity change below about -65%; inconclusive = about -30% to -65%; inactive = above about -30%; note: % is set by controls: 0 for no effect and ±100 for the full control effect
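Compounds are tested against tagged Six1 and Eya2 proteins bridged by glutathione donor and nickel acceptor beads; after a one-hour incubation at 37 °C without light, AlphaScreen emission is recorded.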
D2 ag = human D2 receptor agonism in beta-arrestin assay | P14416 | DiscoveRx PathHunter D2 beta-arrestin, luminescence, 90 min; 100% = 57 uM dopamine signal | activation, % (test concentration not listed) | 360,000 tested, 0.084% active; in the data active = activation above about 40%; inconclusive = about 15% to 40%; inactive = below about 15%; note: compound concentration not given in the record; the text of the record calls up to 30% inactive
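DiscoveRx PathHunter D2 beta-arrestin cells (2,100/well) attached overnight, then compound-stimulated 90 min at 37 C in HBSS/10 mM HEPES/0.1% Tween-20 buffer; beta-galactosidase complementation read by luminescence after 1 h at ambient temperature. Dopamine 57 uM final (EC100) as control.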
* marks the source's active call; other numbers are inactive results; u = inconclusive; x = not tested or not shown; [ ] = dose if it differs, or a comment. No enrichment for hits; any-hit rate near 1%.

SMILES | PINK1 modulator | D2 PAM | TRPML1 agonist | TRPML1 blocker | Six1-Eya2 inh | D2 ag
CCN(CC)S(=O)(=O)c1cc(NC(=O)COC(=O)c2c(C)noc2C)ccc1C | 0.7% | -4 | -0.2 | u | 5 | 0.0
Cc1ccccc1C(=O)Nc1cc(-c2cc(C(C)(C)C)oc2C)nn1C | 1.5% | -4 | u | -5 | -9 | 4.1
CC(C)CCN1CCNC(=O)C1CC(=O)NCCCN1CCOCC1 (configuration not stated) | 0.6% | -2 | -0.3 | 4 | 7 | 1.5
Cc1cc(-c2ccccc2)n2nc(-c3ccc(Cl)cc3)cc2n1 | 0.2% | x | 0.1 | 20 | x | x
Cc1ccc(OCCSc2nc3ccccc3n2CC(=O)N2CCCCC2)c(C)c1 | 14% | x | 0.3 | 64 | x | x
CNC(=O)Nc1nnc(C(C)(C)C)s1 | -1.2% | -7 | 2.1 | 0 | -1 | -5.0
O=c1[nH]c(NCCCO)nc2c1C1(CCCC1)Cc1ccccc1-2 | 4.7%[38.3 µM] | -19 | 0.0 | 1 | -3 | 1.4
Cn1c(SCC(=O)c2ccccc2)nc2cccnc21 | 3.7% | -10 | -0.5 | -12 | -10 | -3.9
CCOC(=O)c1[nH]c2ccccc2c1NC(=O)c1nonc1C | 8.5%[38.3 µM] | -14 | 0.0 | -1 | -2 | -1.9
Cc1cccc(C(C)C)c1NC(=O)COC(=O)CCN1C(=O)C2CC=CCC2C1=O (configuration not stated) | -0.7% | -3 | -0.9 | -6 | 4 | -2.7

Reprinted at random: seven compounds from above, in no set order.
SMILES | PINK1 modulator | D2 PAM | TRPML1 agonist | TRPML1 blocker | Six1-Eya2 inh | D2 ag
Cn1c(SCC(=O)c2ccccc2)nc2cccnc21 | 3.7% | -10 | -0.5 | -12 | -10 | -3.9
Cc1cccc(C(C)C)c1NC(=O)COC(=O)CCN1C(=O)C2CC=CCC2C1=O (configuration not stated) | -0.7% | -3 | -0.9 | -6 | 4 | -2.7
CNC(=O)Nc1nnc(C(C)(C)C)s1 | -1.2% | -7 | 2.1 | 0 | -1 | -5.0
CC(C)CCN1CCNC(=O)C1CC(=O)NCCCN1CCOCC1 (configuration not stated) | 0.6% | -2 | -0.3 | 4 | 7 | 1.5
Cc1ccc(OCCSc2nc3ccccc3n2CC(=O)N2CCCCC2)c(C)c1 | 14% | x | 0.3 | 64 | x | x
CCN(CC)S(=O)(=O)c1cc(NC(=O)COC(=O)c2c(C)noc2C)ccc1C | 0.7% | -4 | -0.2 | u | 5 | 0.0
O=c1[nH]c(NCCCO)nc2c1C1(CCCC1)Cc1ccccc1-2 | 4.7%[38.3 µM] | -19 | 0.0 | 1 | -3 | 1.4

Carrying on:
SMILES | PINK1 modulator | D2 PAM | TRPML1 agonist | TRPML1 blocker | Six1-Eya2 inh | D2 ag
Cc1cc(C(=O)NC2CCCN(Cc3ccc(Cl)cc3)C2)n(C)n1 (configuration not stated) | 0.5% | -19 | 0.9 | 25 | 0 | -4.5
CC(C)(C)c1ccc(S(=O)(=O)N2CCCC2C(=O)NC2=NCCS2)cc1 (configuration not stated) | -0.9% | 14 | -0.3 | -1 | 3 | 1.8
COc1ccc(-c2coc3cc(OC4OC(CO)C(O)C(O)C4O)ccc3c2=O)cc1 (configuration not stated) | -2.5% | -8 | 1.7 | 11 | 4 | -2.8
O=C(Nc1ccccc1)N1C(=O)C2(OCCO2)c2ccccc21 | -0.5% | -4 | 0.1 | -16 | 13 | -4.4
Cc1ccc(C(C(=O)NCc2ccc(F)cc2)N(C(=O)c2csnn2)C2CC2)cc1 (configuration not stated) | -2.5% | -8 | -0.3 | -2 | -5 | -3.1
Clc1ccc(CN2CCCCCC2)cc1 | -1.0% | -14 | 0.0 | 3 | -14 | 1.2
COc1ccccc1NC(=O)/C(C#N)=C/c1c(C)nn(-c2ccc(F)cc2)c1Cl | 5.9% | -2 | -0.3 | -4 | -4 | 2.6
CCOC(=O)c1c(C)nc(C)c(C(=O)OCC)c1-c1cccc([N+](=O)[O-])c1 | 2.1% | -2 | 0.0 | 2 | -5 | -1.3
CC(c1nnc(SCn2nnc3ccccc3c2=O)n1-c1ccc(Cl)cc1)N(C)C (configuration not stated) | -2.3%[38.3 µM] | 4 | 0.0 | 1 | 1 | -1.1
COC(=O)c1c(C)nc(C)c2c(=O)oc3ccccc3c12 | 1.2% | -16 | -0.8 | -9 | -14 | -1.9
O=C1N(c2ccccc2C(F)(F)F)O[C@@]1(c1ccccc1)C1CCCCC1 | -0.9% | -13 | -0.7 | -12 | 28 | -4.5
Cc1ccc(C(=O)NNC(=O)c2cc3cc4ccccc4nc3s2)cc1 | u | 6 | 0.1 | 12 | -8 | -3.3
Cc1ccc(C(=O)NCC(=O)N2CCCC(C(F)(F)F)C2)s1 (configuration not stated) | 5.3% | 10 | -0.3 | -12 | 8 | -2.0
O=C(c1cnn2c(C(F)(F)F)cc(-c3ccccc3)nc12)N1CCCc2ccccc21 | u | -3 | 1.5 | 59 | 7 | -0.4
COc1ccc(N2C(=O)CC(Nc3cccc(C(C)=O)c3)C2=O)cc1OC (configuration not stated) | 0.0% | -13 | 0.2 | -4 | -1 | -0.2
O=C(O)CN1C(=O)C2(OCCO2)c2cc(Br)ccc21 | 2.4% | -11 | 0.3 | 26 | -9 | 1.6
CCc1cccc(NC(=O)C2CCCN2S(=O)(=O)c2cccc3cccnc23)c1 (configuration not stated) | 1.7% | -20 | 1.6 | -3 | 4 | -4.2
COCCCNC(=O)C1CCN(C(=O)c2cnn(-c3ccccc3)c2-n2cccc2)CC1 | -0.6% | x | 0.0 | 13 | x | x
Cc1ccc2oc(C(=O)Nc3sc4c(c3C(=O)NCc3ccco3)CCC4)cc(=O)c2c1 | 3.3% | x | -0.9 | 14 | x | x
CCc1ccc(/C=C2\SC(=S)N(CCCC(=O)NCCCN3CCOCC3)C2=O)cc1 | 6.0% | -10 | -0.4 | 9 | -14 | -3.4
CCN1CCN(C(=O)c2nn(-c3ccc(OC)cc3)c(=O)c3c2c2ccccc2n3C)CC1 | -1.0% | -8 | 0.3 | -12 | 5 | -4.7
Cc1ccccc1Nc1nc(N)nc(CSc2ccc(F)cc2)n1 | 3.4% | -2 | 1.0 | 1 | -6 | 0.1
CC(=O)Nc1cc(-c2ccc(C(=O)N3CCOCC3)cc2)cn2c(-c3ccc(C(C)=O)cc3)cnc12 | 2.1% | 2 | -0.9 | x | -9 | 5.3
COc1ccc2c(c1)OC[C@H]1[C@H]2N2C(=O)CN(Cc3ccccc3)C(=O)[C@@]2(C)[C@H]1c1ccccc1 | 0.7% | -8 | 1.0 | 75 | -7 | 1.3
Cc1cc(N2CCN(c3ccccc3)CC2)nc(N)n1 | 5.3% | 7 | 11 | 2 | -5 | 0.3
CN(C(=O)Cn1c(=O)n(CCC(=O)NCc2ccc3c(c2)OCO3)c(=O)c2sccc21)c1ccccc1 | 0.4% | x | 0.0 | -4 | x | x
Cc1ccc(Cl)cc1N1C(=O)CC(Sc2ncccn2)C1=O (configuration not stated) | 2.6% | 2 | x | x | 3 | 0.9
CCOC(=O)c1sc(NC(=O)COc2ccc3c(c2)OCO3)nc1C | 0.4% | -8 | -0.6 | 4 | -4 | -1.3
COc1cc(N2CCCC2)c(OC)cc1/C=C(/C#N)c1ccc(Br)cc1 | 21% | -18 | 20 | 10 | u | -4.2
Cc1ccc(CN2CCN(Cc3cn[nH]c3C3CCCCC3)CC2CCO)cc1 (configuration not stated) | 0.0% | -20 | -0.2 | 6 | -2 | -1.2
CCOc1ccccc1CNC(=O)c1cc(-c2ccc(OC)cc2)nc2ccc(C(C)C)cc12 | -1.8% | x | -1.0 | 10 | x | x
Cc1ccc(NC(=S)N2CCN(S(=O)(=O)c3ccc(C)cc3)CC2)cc1 | 6.8% | -7 | -0.6 | -2 | 2 | -1.1
C[C@@H]1CN([C@@H](C)CO)C(=O)c2cc(Br)cnc2O[C@H]1CN(C)C(=O)c1cccc(F)c1 | -1.9% | 3 | -0.4 | 1 | 1 | 3.0
COc1ccccc1NC(=O)c1cn(-c2ccccc2)nc1-c1ccccc1 | 0.3% | x | 1.8 | 7 | x | x
Cc1nc(SCC(=O)NC(=O)NC(C)C)nc(C)c1C | -1.0% | -12 | -0.5 | -13 | 8 | 1.4
C=CCSc1ncccc1C(=O)NCCc1ccccc1 | 3.3% | -3 | 1.0 | -3 | -2 | -2.3
Cc1cccc(C2NC(=O)c3ccccc3N2)c1 (configuration not stated) | u | -4 | 1.0 | 3 | 1 | -1.6
COc1ccc(CNCc2ccc(OC)c3ccccc23)cc1 | -1.0% | -22 | 0.7 | 15 | 6 | -0.9
C[C@@H]1CN([C@H](C)CO)C(=O)c2c(c3ccccc3n2C)-c2ccccc2CO[C@H]1CN(C)C(=O)Nc1ccccc1 | -0.8% | -1 | 1.3 | -3 | -11 | -11
CCc1nnc(NC(=O)CCC(=O)N2CCN(Cc3ccc(F)cc3)CC2)s1 | -1.2% | -7 | -1.0 | 5 | 4 | -1.2
CC(C)(C)N(CC#CCC(O)(c1ccccc1)C1CCCC1)CCO (configuration not stated) | 0.6% | -11 | 2.1 | 8 | 8 | -3.8
Cc1[nH]n(-c2ccc(Cl)cc2)c(=O)c1C=NC12CN3CN(CN(C3)C1)C2 | 6.1% | 16 | 1.2 | 1 | 2 | -0.8
C=CCC[C@@H](Cc1ccc(F)cc1)C(=O)OC[C@H](C)NC(=O)[C@@H](CC=C)CC(=O)N(CCO)Cc1ccccc1 | 22% | x | 0.9 | 7 | 0 | -1.5
Cc1ccccc1OCC(O)CN1CCCCC1 (configuration not stated) | -0.5% | -17 | -0.3 | 6 | 2 | -2.4
CC(C)Cn1c(=O)c2sccc2n2c(CCCC(=O)NCCc3ccc(Cl)cc3)nnc12 | 0.9% | x | -0.2 | -8 | x | x
O=C(NCC1CCCO1)c1ccccc1-c1nc(-c2ccc(Cl)cc2)no1 (configuration not stated) | x | -5 | 0.1 | -7 | -2 | -4.6
O=C(c1ccccc1)c1coc2ccc(O)c(Cl)c12 | -5.4%[38.3 µM] | -9 | 2.4 | -5 | -6 | 0.8
C[C@@H](NC(=O)c1nc[nH]c1C(=O)OCc1ccccc1)c1ccccc1 | 6.7% | -8 | 0.8 | -9 | -7 | 0.0
COc1ccc(Oc2cc(C)c3cccc(C)c3n2)cc1 | 29% | -4 | -0.3 | -4 | -15 | 6.7
Cc1ccccc1CC1(CO)CCCN(C(=O)c2ccccc2Cl)C1 (configuration not stated) | 3.9% | -2 | 3.4 | 16 | 0 | 1.7

Following part:
SMILES | PINK1 modulator | D2 PAM | TRPML1 agonist | TRPML1 blocker | Six1-Eya2 inh | D2 ag
CCc1nn2c(=O)c(S(=O)(=O)Nc3ccc(C)cc3C)c(C)nc2s1 | -0.3% | x | 0.0 | -13 | x | x
O=C1CN(C(=O)Cn2ncc(Cl)c(Cl)c2=O)c2ccccc2N1 | -2.3% | 1 | 0.3 | -9 | 26 | 1.1
Cc1cc(Br)ccc1SCC(=O)OCC(=O)NCc1ccc2c(c1)OCO2 | -0.7% | 2 | 3.9 | 8 | 9 | -4.5
CCc1nc2c(OCc3ccc(Cl)cc3)cccn2c1N(C=O)Cc1ccccc1 | 20% | 3 | -0.2 | x | -18 | -2.7

Source: PubChem
